Screening results deposited in PubChem by several laboratories.
CSC inhib: blocks cancer stem cells | cancer stem cell-like cells viability, luminescence | inhibition, % at 7.5 µM | 1.1% of 300,000 active;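 active means mean at 75% or more and at least half the replicates too; inconclusive means mean and replicates disagree; tested in HMLE shEcad cells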;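 further: 0% = median of negative and 100% = median of positive control wells; the first replicate is given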
Rce1 inhib: blocks yeast Ras-converting enzyme; yeast membranes, quenched prenylated peptide cleavage fluorescence; calls only; 0.27% of 290,000 active;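 active means fall in fluorescence gain of 50% or more versus controls, with final raw signal at or below 3038400; inconclusive means same 50% fall but final raw signal above 3038400; inactive means fall in fluorescence gain under 50%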;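 further: plate controls were neutral control wells for no effect and wells lacking membranes for full effect; tested at 10 µM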
Target sequence (Q03530 whole entry, looked up): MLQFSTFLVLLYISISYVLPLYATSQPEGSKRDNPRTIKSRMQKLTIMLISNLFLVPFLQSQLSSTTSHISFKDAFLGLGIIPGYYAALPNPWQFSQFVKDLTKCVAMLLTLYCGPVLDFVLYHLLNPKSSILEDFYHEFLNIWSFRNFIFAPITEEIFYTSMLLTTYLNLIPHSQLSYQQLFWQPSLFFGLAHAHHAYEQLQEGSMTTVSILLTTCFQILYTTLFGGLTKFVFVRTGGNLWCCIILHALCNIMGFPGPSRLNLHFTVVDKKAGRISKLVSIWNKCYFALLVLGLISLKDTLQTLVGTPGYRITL
PABP FP inh: blocks human PABP binding to poly(A) RNA; P11940; fluorescence polarization; inhibition, % at 35 µM; 1% of 290,000 active; AID 2014;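 active means 50% or more with normal probe brightness, or confirmed in later tests; inconclusive means above 50% with abnormal brightness, or retests that disagree; inactive means below 50% or failed in later tests; about a fifth of its hits are not listed in these tables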;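 further: calls also rest on retests at 20 µM and on dose response follow-up; controls were probe without protein and protein plus probe with vehicle; some compounds called inactive have numbers as strong as hits; many hits fall short of the cut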
Target sequence (P11940 whole entry, looked up): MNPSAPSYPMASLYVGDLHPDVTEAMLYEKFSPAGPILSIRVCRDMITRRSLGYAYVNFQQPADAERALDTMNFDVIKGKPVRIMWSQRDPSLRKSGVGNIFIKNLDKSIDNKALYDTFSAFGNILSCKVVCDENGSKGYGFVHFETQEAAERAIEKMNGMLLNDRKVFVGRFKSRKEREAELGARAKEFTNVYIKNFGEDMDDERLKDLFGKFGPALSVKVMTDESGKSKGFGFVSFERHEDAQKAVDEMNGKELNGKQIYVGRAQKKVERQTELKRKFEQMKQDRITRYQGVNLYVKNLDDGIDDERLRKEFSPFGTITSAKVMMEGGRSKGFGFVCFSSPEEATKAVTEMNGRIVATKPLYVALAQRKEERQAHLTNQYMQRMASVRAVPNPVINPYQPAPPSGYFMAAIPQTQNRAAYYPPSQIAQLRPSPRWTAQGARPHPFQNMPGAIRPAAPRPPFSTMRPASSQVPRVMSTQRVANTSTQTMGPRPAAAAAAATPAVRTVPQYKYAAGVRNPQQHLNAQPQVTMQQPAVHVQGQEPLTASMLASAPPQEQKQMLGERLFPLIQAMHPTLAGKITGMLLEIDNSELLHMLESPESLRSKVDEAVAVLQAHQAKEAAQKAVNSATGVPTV
UUG fidelity: yeast start codon fidelity modulation; S. cerevisiae UUG-firefly luciferase reporter, luminescence/redox ratio; activity score, % at 18.7 µM; 0.13% of 350,000 active; AID 602363;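 active means replicate mean at a twofold rise or more, about +100% in these data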;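 further: firefly luciferase made from a UUG start codon reports start codon fidelity; reporter light over untreated wells divided by growth signal over untreated wells; some hits fall short of that in this replicate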
Env fusion inh: blocks HIV Env-driven cell-cell fusion; HeLa-JRFL Env/CEM21 cell fusion, luciferase; inhibition, % at 12.3 µM; 1.1% of 360,000 active;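 active means mean replicate inhibition score of at least 50 and every replicate individually at or above 50; inconclusive means only one of the two criteria met; inactive means mean below 50 and not all replicates reaching 50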;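 further: 0% = plate neutral controls and 100% = maraviroc near 300 nM; one replicate is shown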
MT1-MMP act inh: MT1-MMP (human) activation inhibition; HT1080 RFP-PRO-GFP cells, GFP/RFP ratio fluorescence, overnight; percent of plate control window, DMSO zero; AID 651647; 0.061% of 360,000 active; P50281; GFP/RFP ratio change, % at 20 µM;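 active means GFP/RFP ratio change of at least 30% with cell ATP level not reduced by more than half and red fluorescence within 50% of control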; further: strong numbers were not always called active
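system = RFP-PRO-GFP reporter HT1080 cells | dosing = 20 µM single dose, 1% DMSO | timing = overnight cell settling, then overnight compound exposure, 37 °C, 5% CO2 | read-out basis = GFP/RFP fluorescence ratio | controls = DMSO and RFP-L50D-GFP cell wells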
eIF4H FP inh: inhibitors of RNA binding by human eIF4H; AID 2012; Q15056; eIF4H fluorescence polarization binding assay; 0.94% of 290,000 active; inhibition, % at 35 µM;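 active means 50% or more with normal probe brightness, or confirmed in later tests; inconclusive means above 50% with abnormal brightness, or retests that disagree; inactive means below 50% or failed in later tests; about a fifth of its hits are not listed in these tables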;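 further: calls also rest on retests at 20 µM and on dose response follow-up; 0% = protein and probe with vehicle and 100% = probe without protein; strong numbers were not always called active; many hits fall short of the cut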
eIF4H FP inh retest: second read-out of eIF4H FP inh, no call of its own (marks repeat the call); inhibition, %; compound at 20 µM; confirmation average;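 mean of two retest wells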
PABP FP inh retest: recorded beside PABP FP inh, whose call it bears; inhibition, %; compound at 20 µM; confirmation repeats;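 mean of two retest wells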
MT1-MMP act inh RFP: further read-out of MT1-MMP act inh, marked with its call; RFP signal change, %; measured here: RFP expression control read;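 0 = vehicle wells; hits needed this value within 50% of zero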
Starred values were filed as active, the others as inactive; i = inactive; ? = inconclusive; . = not tested or not shown; + = active, no number.

SMILES	CSC inhib	Rce1 inhib	PABP FP inh	UUG fidelity	Env fusion inh	MT1-MMP act inh	MT1-MMP act inh RFP	eIF4H FP inh	others
CC(=O)NC(c1cccc(F)c1)c1nc(-c2cccs2)cs1 (stereo unspecified)	.	.	.	-11	-2	2	1	.
O=C(OCC(O)C(O)C(O)C(SCc1ccccc1)SCc1ccccc1)c1ccccc1 (stereo unspecified)	.	.	.	-12	-2	-5	2	.
c1ccc(CSc2ccc3nnc(-c4cccnc4)n3n2)cc1	2	i	1	.	.	1	3	-3
S=C1NNC2(CC3CC2C2CCCC32)NN1 (stereo unspecified)	-12	i	4	.	8	1	4	9
O=C(O)c1ccc(NC(=S)N2CCCCC2)cc1	-6	i	-5	-32	-2	-3	2	4
C(=N\Nc1nc2ccccc2[nH]1)/c1cccs1	8	i	-18	-7	-150	-2	-2	-2
O=C(OCc1nc2ccsc2c(=O)[nH]1)c1ccccc1	-6	i	.	-15	-42	3	-2	.
CCOC(=O)C1CCCN(C/C=C/c2ccccc2[N+](=O)[O-])C1 (stereo unspecified)	-10	i	11	.	.	3	2	16
COCCN1CCn2c(nc3cc(Nc4nnc(C)c5ccccc45)ccc32)C1	-9	i	32	.	-3	1	2	7
O=c1c2ccccc2nc(SCc2nc3ccccc3s2)n1CCCO	-2	i	33	-3	.	-9	-4	-9
O=S1(=O)Nc2c(ccc3cccnc23)-c2ccccc21	96*	i	9	-25	.	18	4	15
CS(=O)(=O)N1N=C(c2ccco2)CC1c1ccc(Br)cc1 (stereo unspecified)	36	i	-8	.	-20	-1	1	-5
CN(C)CCNc1ncnc2oc(-c3ccccc3)c(-c3ccccc3)c12	1	+	-7	-7	2	-7	-7	-4
CN(C(=O)c1cccc(NC(=O)Cc2ccc(NC(=O)C3CCN(C(=O)C4CCC4)CC3)cc2)c1)C1CC1	.	.	.	2	10	6	8	.
COc1ccc(-c2noc(CCc3ccccc3)n2)cc1	-9	i	6	1	-8	-1	-2	-16
Cc1ccc(NC(=S)NC(=O)c2cncc(Br)c2)cc1Cl	-9	i	.	-37	3	4	2	.
Cn1cc(Br)c(-c2cccc(N3C(=O)CC(C)(C)CC3=O)c2)n1	-1	i	0	-2	6	2	-7	0
CC1(C(=O)NS(=O)(=O)c2cccs2)CCN1C(=O)c1ccccc1 (stereo unspecified)	.	.	.	-14	-19	5	4	.
CCN(CC)C(=O)[C@H]1CC(CC(=O)NC(C)(C)C)C(=O)N2CCc3c([nH]c4ccc(OC)cc34)[C@]12C (stereo partly specified)	.	.	.	0	-17	1	5	.
CC(=O)Nc1ccc(Sc2ccccc2C(=O)O)cc1	-6	i	-2	.	22	-3	-7	-17
O=C1C(Cl)=C(NCCN2CCOCC2)C(=O)c2ccccc21	1	i	10	5	4	6	11	-2
CCCC(=O)Nc1c2c(nn1-c1ccc(OC)cc1)CS(=O)(=O)C2	-2	i	-6	-10	.	2	3	-2
CCCCNC(=O)c1oc2ccc(S(=O)(=O)N3CCCC3)cc2c1C	-3	i	6	-2	2	7	-5	2
CC(=O)c1ccc(NC(=O)CCNC(=O)c2ccc(Cl)cc2)cc1	-11	i	-4	-16	4	0	-2	2
O=C(COC(=O)/C=C/c1cccc(F)c1)Nc1cccc(S(=O)(=O)NC2=NCCCCC2)c1	-5	.	.	1	.	-1	-1	.
CCOC(=O)c1cc2sc(C)cc2n1CC(=O)NCc1ccc(F)cc1	-9	i	18	-13	.	-4	-5	3
CC(=O)N1CCc2cc(Br)cc(S(=O)(=O)NCCCN3CCC(C)CC3)c21	.	.	-2	-21	-21	6	9	-1
COc1cccc(C(=O)C2CCCN(Cc3cccc(OCCO)c3)C2)c1 (stereo unspecified)	-6	i	-2	1	-17	-2	0	-6
CN1CCCC(OC(=O)c2cc(Cl)cc(Cl)c2)C1 (stereo unspecified)	-14	i	?	.	-89	-2	-4	-3
CCCNC(=O)C1(C)CCN(C(=O)c2ccc3c(c2)CCO3)C1 (stereo unspecified)	.	.	.	-11	-2	8	6	.
O=C(O)Cn1nnnc1SCC(=O)Nc1ccc(OC(F)(F)F)cc1	5	i	-2	-13	.	7	7	3
CCN(CC)Cc1cc(NC2=NS(=O)(=O)c3ccccc32)ccc1OC(=O)c1ccccc1	5	i	0	.	-1	4	5	-5
COC(=O)C1=NNC2(c3ccc(C)cc3)C(=O)N(c3cccc(C)c3C)C(=O)C12 (stereo unspecified)	4	i	6	-17	-27	1	-3	10
CCCN(CC(=O)Nc1ccc(F)c(F)c1F)Cc1cc(=O)n2ccsc2n1	-7	i	7	.	22	4	5	-18
CC1CC(C)CN(C(=O)CSc2n[nH]c(N)n2)C1 (stereo unspecified)	-7	.	.	-17	2	1	-2	.
Cc1cc2nnc(SCC(=O)Nc3cccc(S(=O)(=O)N4CCOCC4)c3)n2c2ccccc12	-1	i	-10	-17	-6	0	-4	-11
Cc1c(OCC(=O)NCCCN2CCCC2=O)ccc2c3c(c(=O)oc12)CCC3	-3	i	5	0	-5	-2	1	-4
COc1cccc(N=Cc2nc(-c3ccccc3)oc2OC(C)=O)c1	-16	i	-3	5	3	1	0	-2
C=CCc1cccc(CNc2nc3ccccc3n2C(C)C)c1O	29	i	-1	-1	?	7	-4	4
CCCn1c(CCl)nc2cc(S(=O)(=O)N3CCOCC3)ccc21	-1	.	.	-6	16	2	2	.

In the list so far, these have a furan ring, fused or not.
SMILES	CSC inhib	Rce1 inhib	PABP FP inh	UUG fidelity	Env fusion inh	MT1-MMP act inh	MT1-MMP act inh RFP	eIF4H FP inh	others
CS(=O)(=O)N1N=C(c2ccco2)CC1c1ccc(Br)cc1 (stereo unspecified)	36	i	-8	.	-20	-1	1	-5
CN(C)CCNc1ncnc2oc(-c3ccccc3)c(-c3ccccc3)c12	1	+	-7	-7	2	-7	-7	-4
CCCCNC(=O)c1oc2ccc(S(=O)(=O)N3CCCC3)cc2c1C	-3	i	6	-2	2	7	-5	2

Further compounds follow:
SMILES	CSC inhib	Rce1 inhib	PABP FP inh	UUG fidelity	Env fusion inh	MT1-MMP act inh	MT1-MMP act inh RFP	eIF4H FP inh	others
O=C1C(=O)N(c2ccccc2)C(c2ccccc2[N+](=O)[O-])/C1=C(\O)c1ccccc1 (stereo unspecified)	-5	i	-10	-3	-16	0	7	-5
Cn1c(SCC(=O)Nc2ncc(C(F)(F)F)cc2Cl)nnc1-c1ccc(Cl)cc1	-10	i	2	.	5	2	2	-2
Cc1cc2c(cc1C)C(c1ccccc1Br)CC(=O)N2 (stereo unspecified)	7	i	11	-5	-11	4	-2	13
Cc1[nH]c(N)nc(=S)c1CCCNc1ccccc1	.	.	.	-16	2	9	-3	.
CCNC(=O)CSc1nnc(-c2ccccc2Br)n1-c1cccc(C(F)(F)F)c1	2	i	-5	.	-7	-2	4	0
CN(C)CCCN(C(=O)c1ccco1)c1nc2c(F)cc(F)cc2s1	-8	i	-6	-9	8	-3	-5	0
O=C(CSC(=S)N1CCCC1)Nc1ccc(Br)cc1Cl	-7	i	.	-7	9	-1	-3	.
Cc1c(Cl)cccc1Nc1nc(N)nc(CN2CCCCCC2)n1	4	i	-18	-25	.	0	0	-11
N#Cc1ccccc1Sc1ccccc1C(=O)OCC(=O)NC12CC3CC(CC(C3)C1)C2	8	i	5	.	13	-3	1	-5
COc1ncccc1C(=O)N1CCCC(C(=O)c2cc(F)ccc2F)C1 (stereo unspecified)	-3	.	-11	.	-9	-1	1	-8
O=C(O)c1cccc(-c2csc(C(O)(c3ccccc3)C(F)(F)F)n2)c1 (stereo unspecified)	.	.	.	-8	15	-3	3	.
C=Cn1cc[n+](CC(=O)c2ccc(-c3ccccc3)cc2)c1	19	i	1	-9	-3	1	-8	0
CC(SC1CCCC1)C(=O)NC(C)(C#N)C(C)C (stereo unspecified)	-1	i	6	-12	-78	-2	4	2
COc1ccc(C=O)cc1OS(=O)(=O)c1ccc(NC(C)=O)cc1	11	i	-3	.	-25	-1	0	-11
O=C(Cc1nnc(NC(=O)c2ccccc2)s1)N/N=C\c1ccc(O)c(O)c1	-15	i	28	-7	-1	-2	3	59*	eIF4H FP inh retest=94*;PABP FP inh retest=42
CCC(=O)Nc1ccc(C(=O)NNC(=O)CCCCC(=O)NNC(=O)c2ccc(NC(=O)CC)cc2)cc1	.	.	.	0	-15	3	3	.
Cc1c(C(=O)NCc2ccc(C(C)C)cc2)sc(=O)n1Cc1ccc(S(=O)(=O)N(C)C)cc1	.	.	.	5	43	7	-26	.
c1ccc(Nc2c3c(nc4ncnn24)CCC3)cc1	-7	i	0	5	-28	-1	-2	-3
CCN(CC)C(=O)C1=C(C)N(Cc2ccc(C(C)(C)C)cc2)C(=O)C(CC(=O)NC2CCCC2)C1 (stereo unspecified)	.	.	.	32	-56	1	4	.
C[C@H](NC(=O)c1ccc(C(C)(C)C)cc1)C(=O)N1CCOCC1	15	.	.	-16	.	-4	2	.
Cc1cc(C)cc(NC(=O)CCC(=O)Nc2nnc(C(C)C)s2)c1	-14	i	1	-20	0	1	1	-13
O=C(CCNS(=O)(=O)c1cccc2nsnc12)NCCc1ccccc1	-3	i	6	.	-6	1	3	2
N#CC(C#N)=C1C=C2C=C(N3CCOCC3)CCC2CC1 (stereo unspecified)	.	i	0	.	13	-14	63	?
COCC(=O)Nc1cc(OC)cc(OC)c1	-14	i	-2	-3	.	-2	4	6
COc1ccc(OCC(=O)OCC(=O)NCC2CCCCC2)cc1	-11	.	.	.	24	-2	2	.
Cc1cc(C(=O)N2CCN(c3ccccn3)CC2)c(C)o1	-2	i	15	-7	.	4	2	18
CS(=O)(=O)N1CCN(c2nc3ccc(Cl)cc3s2)CC1	-10	i	0	.	-20	2	-1	-3
C=C(C)CN(CC)C(=O)Cn1cnc2c(oc3ccccc32)c1=O	7	i	4	-11	.	-2	-1	4
CC(=O)Nc1ccc(NC(=O)CSc2ccc3nnc(CCNS(=O)(=O)c4ccc(C)cc4)n3n2)cc1	-4	i	12	-8	5	0	1	0
CCOc1ccc(NC(=O)NCc2ccc3c(c2)OCO3)cc1	-11	i	1	-1	4	1	4	-4
CCOC(=O)Cn1c(=O)oc2cc(S(=O)(=O)NC3CCCc4ccccc43)ccc21 (stereo unspecified)	7	i	0	15	28	1	5	-8
COc1ccc(C(=O)Nc2ccccc2C(=O)N2CCOCC2)cc1Br	-22	i	-2	-6	3	-1	0	-11
CC(=O)Nc1cccc(-c2cnc3ccccc3n2)c1	5	i	-6	-16	-138	0	-4	-4
COc1ccc2nc(N=Nc3c(O)ccc4ccccc34)sc2c1	.	i	-6	.	.	.	.	1
COc1ccc(CNc2nc3c(c(=O)[nH]c(=O)n3C)n2CCCc2ccccc2)cc1	-3	i	4	-11	.	3	4	0
O=C(O)c1ccccc1NS(=O)(=O)c1ccc2ccccc2c1	-12	i	-2	-6	-1	0	2	-6
O=C(/C=C/[C@H]1O[C@@H](n2cnc3c(NC(=O)c4ccccc4)ncnc32)[C@H](O)[C@@H]1O)NCCCc1ccccc1	.	.	.	4	28	1	6	.
CC(C)Cc1nnc(NC(=O)Nc2ccccc2)s1	10	i	-2	-9	-29	7	-9	4
Cc1ccc(/C=C/c2nnc(-c3ccc(C)cc3)o2)cc1	13	i	3	-11	.	-2	2	-2
Cc1ccc(C)c(NC(=S)N2C3CCCC2CC(NC(=O)C2CC2)C3)c1 (stereo unspecified)	-9	i	-4	-9	4	-1	0	-8
